Assay outcomes as filed in PubChem.
hNpr1 antagonist = blocks ANP-stimulated signaling of human Npr1 receptor; HEK293 hNpr1 GloSensor cGMP, ANP-stimulated luminescence; Potency, µM (top dose mostly 46.3 µM), for inactives: top-dose activity change, negative = inhibition, usual class: inhibitors; 1.6% of 76,000 active; AID 1347048; active = well fitted inhibition curve with a large enough effect; inconclusive = small, poorly fitted or top-dose-only effect; inactive = no such curve, though single readings can be large or run the other way;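 also: nearly all actives have a fitted effect of over 60% in size; nearly all hits also lower the signal before the agonist is added; a reference antagonist and vehicle were the controls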
Target sequence (P16066 whole entry, looked up): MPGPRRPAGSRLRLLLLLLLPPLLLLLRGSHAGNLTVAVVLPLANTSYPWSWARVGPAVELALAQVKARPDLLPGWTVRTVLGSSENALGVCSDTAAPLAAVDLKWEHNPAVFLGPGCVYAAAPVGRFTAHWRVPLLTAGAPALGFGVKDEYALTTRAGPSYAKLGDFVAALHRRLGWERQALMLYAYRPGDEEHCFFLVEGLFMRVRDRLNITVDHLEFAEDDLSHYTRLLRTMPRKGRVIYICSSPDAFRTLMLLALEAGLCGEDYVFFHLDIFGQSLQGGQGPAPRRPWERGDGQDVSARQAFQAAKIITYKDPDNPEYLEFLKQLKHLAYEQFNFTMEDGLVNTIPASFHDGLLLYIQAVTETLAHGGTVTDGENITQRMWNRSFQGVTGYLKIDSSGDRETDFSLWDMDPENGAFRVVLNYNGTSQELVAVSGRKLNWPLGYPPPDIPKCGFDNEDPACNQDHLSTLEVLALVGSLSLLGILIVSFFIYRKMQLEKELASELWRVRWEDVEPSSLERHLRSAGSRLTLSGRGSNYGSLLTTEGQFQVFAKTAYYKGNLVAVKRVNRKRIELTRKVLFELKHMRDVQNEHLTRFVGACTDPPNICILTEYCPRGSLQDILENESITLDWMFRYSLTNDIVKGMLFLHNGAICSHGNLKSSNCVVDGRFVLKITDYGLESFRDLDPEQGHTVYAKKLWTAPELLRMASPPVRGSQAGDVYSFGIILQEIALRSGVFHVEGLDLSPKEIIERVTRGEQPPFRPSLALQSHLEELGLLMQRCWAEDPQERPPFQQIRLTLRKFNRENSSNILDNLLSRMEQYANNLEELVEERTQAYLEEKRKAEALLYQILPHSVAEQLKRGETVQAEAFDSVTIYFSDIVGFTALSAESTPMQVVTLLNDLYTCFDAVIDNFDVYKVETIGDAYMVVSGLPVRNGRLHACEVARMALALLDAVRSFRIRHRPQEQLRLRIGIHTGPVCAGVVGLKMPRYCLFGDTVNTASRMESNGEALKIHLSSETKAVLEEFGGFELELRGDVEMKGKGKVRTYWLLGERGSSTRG
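Compound pre-incubated 30 min at room temperature on GloSensor-loaded HEK293 cells stably carrying hNpr1 and the pGS-40F cGMP biosensor. Stimulation uses hNppA at 0.1 nM final; luminescence is taken at baseline and 20 min post-agonist.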
An asterisk follows results filed as active; ? = inconclusive; [ ] = dose if it differs, or a comment. % is scaled to controls: 0 for no effect and ±100 for the full control effect; potency is read from the fitted curve at half-maximal effect. Some of the compounds tested. The share of hits here may be higher or lower than overall.

entry	Molecule	hNpr1 antagonist
1	COc1cccc(CCC(=O)N2CCCC(CN3CCC(C)CC3)CC2)c1 (stereo unspecified)	-10.6%
2	Cc1ccc(-c2cc3c(=O)n(CCNC(=O)c4ccc(F)cc4)ccn3n2)c(C)c1	?
3	O=C(c1cccc(F)c1)N1CCC2(CC1)C(=O)NN=C2c1ccccn1	-4.8%
4	CC1(C)CN(C(=O)c2ccc(Oc3ccccc3)o2)CC1(C)O (stereo unspecified)	2.3%
5	CC(=O)Nc1ccc(C(=O)N2CCN(c3cc(-c4ccc(F)cc4)[nH]n3)CC2)cc1	-0.4%
6	Cc1ccc(C2Cn3nnc(C(=O)N4CCC(C(=O)NCc5cc(F)cc(F)c5)CC4)c3CO2)cc1 (stereo unspecified)	-0.6%
7	Cc1ccc(C(=O)NC2CCN(c3cnn(CC4CC4)c(=O)c3)CC2)cc1C	2.1%
8	Cc1cnccc1CN(C)Cc1ccc2c(C)cc(=O)oc2c1	-0.8%
9	COc1ccccc1CC(=O)N1CCCc2ncc(C(=O)Nc3cccnc3)cc21	-0.2%[70.6 µM]
10	CCN1C(=O)Cc2cc(C(=O)NCc3ccc(OC)cc3)ccc21	-4.0%
11	O=C(CCc1cc(Cl)no1)NCCc1noc(-c2ccccc2)n1	0.0%
12	O=C1CCN(C(=O)CCCc2ccccc2)CCCCCCN1	-0.6%

New compounds follow:
entry	Molecule	hNpr1 antagonist
13	Cc1nc2c(c(-c3ccc(Cl)cc3)n1)CN([S+](=O)([O-])c1ccccc1)CC2	-4.0%
14	COCC(=O)N[C@@H]1CN(Cc2cccnc2)C[C@H]1CN(C)C	1.9%
15	c1ccc(CCCN[C@H]2CO[C@H]3[C@@H]2OC[C@@H]3n2cc(-c3ccccc3)nn2)cc1	10µM*
16	NC1CCCCN(Cc2ccc(-c3ccn[nH]3)s2)C1 (stereo unspecified)	-3.6%
17	CCN(C)C(=O)CCc1c(C)nn(-c2cccc(C)c2)c1Oc1ccc(F)cc1F	-3.4%
18	CCCNC(=O)c1coc(COc2ccc3c(c2)C(c2ccc(F)cc2)N(C(=O)C(C)C)CC3)n1 (stereo unspecified)	-12.2%
19	CN(Cc1ccccc1)CC1(O)CCCN(CCCc2ccccc2)C1=O (stereo unspecified)	3.4%
20	COCCNC(=O)CC[C@]12CC[C@](C)(O)C[C@H]1C(C)(C)C[C@@H]2NC(=O)c1ccc(C(F)(F)F)cc1	-1.4%
21	O=C(Cc1cccs1)NCCc1noc(-c2cccnc2)n1	0.0%
22	CCOc1ccc(CC(=O)NC2CCN(c3cc(-c4ccc(OC)cc4)[nH]n3)CC2)cc1	0.0%
23	COc1ccc(-n2nc(C3CCN(Cc4ccc(C(F)(F)F)cc4)CC3)[nH]c2=O)cc1	?
24	O=C(C[C@H]1NC(=O)c2ccccc2NC1=O)Nc1ccc(Cn2cncn2)cc1	-1.8%

Additional records follow:
entry	Molecule	hNpr1 antagonist
25	COc1ccc(C(=O)N2CCC3(CC2)OC(=O)N(CC2CC2)C3(C)c2cccnc2)cn1 (stereo unspecified)	-5.5%[70.6 µM]
26	CN1C(=O)[C@H]2CN(Cc3c[nH]c4ccccc34)C[C@H]2C1=O	0.4%
27	Cc1c(F)cccc1Nc1ncncc1-c1nc(-c2ccccc2)no1	-12.0%
28	O[C@@H]1CN(CC2CCNCC2)CC[C@H]1c1ccc2ccccc2c1	2.2%
29	COCC(=O)N[C@H]1C[C@@H](c2nc(-c3ccc(OC(F)(F)F)cc3)no2)N(C)C1	1.3%[70.6 µM]
30	Cc1cccc(OCC2(CNCc3nccs3)C[C@@H](O)[C@@H](O)C2)n1 (stereo partly specified)	2.0%
31	O=C1NCCCC1C(=O)N1CCC2(CC1)Nc1ccccc1NC2=O (stereo unspecified)	6.8%
32	O=C(c1nnc(CN2CCN(c3ccccn3)CC2)n1-c1ccccc1)N1CCC[C@@H]1c1cccc(F)c1	-2.6%
33	COc1ccccc1-c1ncc(CNc2ncncn2)s1	-1.4%
34	O=C(Cc1ccccc1)NCC1CN(Cc2ccc(C(=O)O)cc2)CC12CN(c1ccccc1)C2 (stereo unspecified)	-5.1%
35	COc1ccccc1-c1nocc1CCC(=O)O	-13.4%
36	COc1ccc(CN2CCC([C@H]3[C@@H](OC)C(=O)N3C(C)C)CC2)cc1CN1CCCC1	1.1%

Another view of part of the listing above.
nr	hNpr1 antagonist	SMILES
13	-4.0%	Cc1nc2c(c(-c3ccc(Cl)cc3)n1)CN([S+](=O)([O-])c1ccccc1)CC2
14	1.9%	COCC(=O)N[C@@H]1CN(Cc2cccnc2)C[C@H]1CN(C)C
15	10µM*	c1ccc(CCCN[C@H]2CO[C@H]3[C@@H]2OC[C@@H]3n2cc(-c3ccccc3)nn2)cc1
16	-3.6%	NC1CCCCN(Cc2ccc(-c3ccn[nH]3)s2)C1 (stereo unspecified)
17	-3.4%	CCN(C)C(=O)CCc1c(C)nn(-c2cccc(C)c2)c1Oc1ccc(F)cc1F
18	-12.2%	CCCNC(=O)c1coc(COc2ccc3c(c2)C(c2ccc(F)cc2)N(C(=O)C(C)C)CC3)n1 (stereo unspecified)
19	3.4%	CN(Cc1ccccc1)CC1(O)CCCN(CCCc2ccccc2)C1=O (stereo unspecified)
20	-1.4%	COCCNC(=O)CC[C@]12CC[C@](C)(O)C[C@H]1C(C)(C)C[C@@H]2NC(=O)c1ccc(C(F)(F)F)cc1
21	0.0%	O=C(Cc1cccs1)NCCc1noc(-c2cccnc2)n1
22	0.0%	CCOc1ccc(CC(=O)NC2CCN(c3cc(-c4ccc(OC)cc4)[nH]n3)CC2)cc1
23	?	COc1ccc(-n2nc(C3CCN(Cc4ccc(C(F)(F)F)cc4)CC3)[nH]c2=O)cc1
24	-1.8%	O=C(C[C@H]1NC(=O)c2ccccc2NC1=O)Nc1ccc(Cn2cncn2)cc1
25	-5.5%[70.6 µM]	COc1ccc(C(=O)N2CCC3(CC2)OC(=O)N(CC2CC2)C3(C)c2cccnc2)cn1 (stereo unspecified)
26	0.4%	CN1C(=O)[C@H]2CN(Cc3c[nH]c4ccccc34)C[C@H]2C1=O
27	-12.0%	Cc1c(F)cccc1Nc1ncncc1-c1nc(-c2ccccc2)no1
28	2.2%	O[C@@H]1CN(CC2CCNCC2)CC[C@H]1c1ccc2ccccc2c1
29	1.3%[70.6 µM]	COCC(=O)N[C@H]1C[C@@H](c2nc(-c3ccc(OC(F)(F)F)cc3)no2)N(C)C1
30	2.0%	Cc1cccc(OCC2(CNCc3nccs3)C[C@@H](O)[C@@H](O)C2)n1 (stereo partly specified)
31	6.8%	O=C1NCCCC1C(=O)N1CCC2(CC1)Nc1ccccc1NC2=O (stereo unspecified)
32	-2.6%	O=C(c1nnc(CN2CCN(c3ccccn3)CC2)n1-c1ccccc1)N1CCC[C@@H]1c1cccc(F)c1
33	-1.4%	COc1ccccc1-c1ncc(CNc2ncncn2)s1
34	-5.1%	O=C(Cc1ccccc1)NCC1CN(Cc2ccc(C(=O)O)cc2)CC12CN(c1ccccc1)C2 (stereo unspecified)
35	-13.4%	COc1ccccc1-c1nocc1CCC(=O)O
36	1.1%	COc1ccc(CN2CCC([C@H]3[C@@H](OC)C(=O)N3C(C)C)CC2)cc1CN1CCCC1

(list continues)
entry	Molecule	hNpr1 antagonist
37	CCc1ccc(C(=O)N2CCN(C3(CC)CCN(C(=O)NC)C3)CC2)cc1 (stereo unspecified)	-3.1%
38	CC1CCN(CC2CCCN(C(=O)C3(c4ccccc4)CC3)CC2)CC1 (stereo unspecified)	3.6%
39	COc1ccc(NC(=O)Cn2c(-c3ccccc3)nc(C)cc2=O)cc1	-25.0%
40	O=C(NC1C[C@H]2CC[C@@H](C1)N2C(=O)Cc1ccc(Br)cc1)c1ccncc1 (stereo partly specified)	0.6%
41	COC(=O)[C@@H]1Cc2ncn(Cc3ccc(OC)cc3)c2CN1C(=O)C1CCCCC1	-1.6%[70.6 µM]
42	COc1ccc2nc(CO[C@H]3CN(Cc4cccc(OC)n4)C[C@H]3F)[nH]c2c1	-1.9%[70.6 µM]
43	CCN(CC)Cc1ccc2c(c1)CN(C(=O)c1cccc(F)c1)CCO2	-0.4%
44	O=C(Cc1cccc(F)c1)NCCc1noc(-c2cccnc2)n1	7.5%
45	COc1ccccc1CN1Cc2cc(NS(=O)(=O)c3ccc(C)c(F)c3)ccc2OC(C)C1=O (stereo unspecified)	-14.0%
46	Cc1ccccc1-n1nc(C)c(CCC(=O)NC(C)C)c1Oc1cccc(F)c1	-3.9%
47	COC(=O)c1sc(NC(=O)CC[C@H]2NC(=O)c3ccccc3NC2=O)nc1C	3.4%
48	CC[C@@]1(O)CCN(C(=O)c2cccnc2N(C)C2CCCCC2)C[C@H]1O	-0.2%

(more compounds)
entry	Molecule	hNpr1 antagonist
49	COc1cccc([S+](=O)([O-])N2CCc3nc(C(C)C)nc(-c4ccc(Cl)cc4)c3C2)c1	-4.8%
50	Cc1cc2nc3n(c(=O)c2n1CC(=O)Nc1ccc(F)c(F)c1)CCC3	5.0%
51	CC(C)CNC(=O)C1Cn2cccc2C(=O)N1Cc1cccnc1 (stereo unspecified)	-1.4%
52	CC(C)c1nc2c(c(-c3ccc(O)cc3)n1)CN([S+](=O)([O-])c1cccc(C(F)(F)F)c1)CC2	14.0%
53	Cc1csc(S(=O)(=O)N2CC[C@@H]3[C@@H](CCC(=O)N3CCN)C2)c1	4.6%
54	O=C(NCc1cnc2c(c1)CCC2)C1NCCc2[nH]cnc21 (stereo unspecified)	0.7%
55	O=C(NCCc1ccccc1)N(C1CCOCC1)C1CCN(Cc2cccc(F)c2)CC1	1.6%
56	COc1cccc(CCC(=O)N2CCC(c3nn(C)c4c3COCC4)CC2)c1	4.2%
57	O=C(CC1CCCCC1)N1CCC(c2n[nH]c(=O)n2-c2ccccc2)CC1	9.9%
58	COCCN1C(=O)c2ccccc2C(C(=O)NCc2ccccc2Cl)C12CCCC2 (stereo unspecified)	-7.8%
59	COc1cccc(CN2Cc3cc(NC(=O)c4ccc(F)cc4F)ccc3OC(C)C2=O)c1OC (stereo unspecified)	-13.7%
60	COCc1nncn1C1CCN(C(=O)C2(c3ccccc3)CC2)CC1	-8.5%

Further results.
entry	Molecule	hNpr1 antagonist
61	COc1ccc(NC(=O)N2Cc3[nH]cnc3C[C@H]2c2nc(-c3ccncc3)no2)cc1	0.6%[70.6 µM]
62	O=C(c1cc(-c2ccccc2F)cc2c1OCCN2Cc1cccnc1)N1CCCC1	?
63	COc1cccc(NC(=O)N(C)CC2CCOCC2)c1	-3.9%
64	COc1ccc(-c2n[nH]c3c2CC(=O)N(CC2CC2)C3)cc1OC	-3.8%[70.6 µM]
65	C[S+](=O)([O-])c1cccc(NC(=O)Cc2c[nH]c3ncc(-c4ccccc4)cc23)c1	?
66	CC(C)(N)C(=O)N1CCCC(N2CCN(c3ccc(F)cc3)CC2)C1 (stereo unspecified)	6.3%
67	CCC(=O)N1CCC2(CC1)OCC(C(=O)NCc1ccccc1)N2C(=O)c1cccc(OC)c1 (stereo unspecified)	0.7%
68	CC(C)NC(=O)N1CCCCCNC(=O)[C@@H]2CCCC[C@@H]21	1.1%
69	Cc1ccc(-n2nc3n(c2=O)CCN(C(=O)c2ccccc2F)C3)cc1	-0.8%
70	CN(C)CCN1CC2(CCN(C(=O)Cc3c[nH]c(=O)[nH]c3=O)CC2)OC1=O	6.3%
71	COCc1nncn1C1CCN(S(=O)(=O)c2cc(F)cc(F)c2)CC1	2.5%
72	CNC(=O)CCC[C@@H]1[C@H]2CCCN3CCC[C@@H](CN1C(C)=O)[C@@H]23	7.2%

Continuation.
entry	Molecule	hNpr1 antagonist
73	COc1ccc(CC(=O)Nc2ccc(N3CCC(NCCCn4cccn4)CC3)cc2)cc1	8.2%
74	O=C(C1CCOCC1)N1CC(Oc2cccc(-c3nc(-c4ccccc4)no3)c2)C1	4.3%
75	O=C(CCn1ccn2nc3c(c2c1=O)CCCC3)N1CC(=O)N(CCc2ccccc2)C(=O)C1	?
76	COC(=O)[C@H](NC(=O)[C@@H]1C[C@H](NC(=O)NC(C)C)CN1C(=O)c1cccn1C)C(C)C	-9.0%
77	Cc1ccc(CN2CCC([C@@H]3CNC[C@H]3CO)CC2)s1	6.3%
78	Cc1cccc(-c2noc([C@@H]3Cc4nc[nH]c4CN3)n2)c1	-1.6%[70.6 µM]
79	CNC(=O)[C@@H]1C[C@H](n2cc(CNC(=O)c3ccccc3OC)nn2)CN1	0.8%
80	Cc1cc2nc3n(c(=O)c2n1CC(=O)NC(C)CCc1ccccc1)CCCCC3 (stereo unspecified)	2.8%
81	CCN1c2cc(C(=O)Nc3cccc4c3CCCC4)ccc2C(=O)N2CCCCCC21 (stereo unspecified)	-5.1%
82	CCS(=O)(=O)N1CCC2(CCC(=O)N(Cc3ccccc3)CC2)CC1	-0.1%
83	Cc1nn(-c2ccc(C(F)(F)F)cc2)c(C)c1[C@@H]1C=C[C@@H](NS(=O)(=O)c2ccccc2)C1	-29.3%
84	O=C(c1ccco1)N1CCC(Oc2ccccc2-c2nc(-c3ccccc3)no2)C1 (stereo unspecified)	-7.5%

Next part.
entry	Molecule	hNpr1 antagonist
85	CC(C)C(=O)NCCc1noc(-c2ccccc2)n1	2.0%
86	CC(C)CC(=O)N1CCCCCCNC(=O)[C@@H]2CCCC[C@@H]21	-10.0%
87	Cc1cnc(C(=O)NC2C[C@H]3CC[C@@H](C2)N3C(=O)C2CCOCC2)cn1 (stereo partly specified)	1.9%
88	Cc1cc(C(=O)Nc2ccc([C@H]3OCC(=O)N(C)[C@@H]3CO)cc2)n(C)n1	-10.7%[70.6 µM]
89	Cc1ccc(OCc2nc(C3CCCN3)no2)cc1 (stereo unspecified)	0.6%
90	CC(C)c1nc2c(c(-c3ccc(O)cc3)n1)CN(Cc1ccccc1)CC2	2.0%
91	Cc1ncc2c(c1CNC(=O)c1sccc1S(N)(=O)=O)CCNC2	-0.1%
92	CC(=O)c1ccc(C(=O)N2CCC3(CC2)OCCCC3O)s1 (stereo unspecified)	5.4%
